Screening results deposited in PubChem by National Center for Advancing Translational Sciences (NCATS).
HPGD block: HPGD (human) dehydrogenase inhibition; P15428; purified HPGD, NADH fluorescence kinetic, PGE2 substrate; Potency, µM, inactives show at the highest dose activity change, negative = inhibition, actives largely listed as inhibitors; 150,000 tested, 4.3% active; AID 894; active = well fitted inhibition curve with a large enough effect (not every such curve was filed as active); inconclusive = small, poorly fitted or top-dose-only effect, or another doubt; inactive = no such curve, though single readings can be large or run the other way;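 note: top concentration of the series not given in the record; plate controls included wells without enzyme; inactives centre near -10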
Target sequence (P15428 whole entry, looked up): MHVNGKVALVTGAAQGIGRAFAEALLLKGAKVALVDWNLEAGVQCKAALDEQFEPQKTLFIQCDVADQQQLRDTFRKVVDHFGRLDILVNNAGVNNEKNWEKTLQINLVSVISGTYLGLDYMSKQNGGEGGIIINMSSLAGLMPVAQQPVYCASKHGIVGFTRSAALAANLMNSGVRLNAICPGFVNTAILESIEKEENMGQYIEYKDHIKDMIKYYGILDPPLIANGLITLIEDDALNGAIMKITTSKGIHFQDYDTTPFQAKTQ
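20 nM HPGD preincubated 15 min at room temperature with compound in 50 mM Tris-HCl pH 8, 0.01% Tween 20. Started with 1 mM NAD+ and 30 uM prostaglandin E2; NADH fluorescence (360/450 nm) read 5 times over 30-s intervals, last minus first.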
Numbers without * were called inactive; ? = inconclusive; & = joins results of further samples. % is set by controls: 0 for no effect and ±100 for the full control effect; potency is the fitted concentration of half-maximal effect. The list is partial; count on the stated rates, not on these rows.

SMILES	HPGD block
Cc1ccccc1-n1c(-c2ccc([N+](=O)[O-])cc2)nc2ccccc2c1=O	-2%
Clc1ccc(C2N3CCCN23)c(Cl)c1 (stereo not given)	-14%
CN1[C@@H]2CC[C@H]1CC(OC(=O)N1Cc3ccccc3NC1=O)C2 (stereo not given in full)	-13%
Cc1ccc(N(C)C(=O)Oc2ccc(C(=O)c3ccc(Cl)cc3)cc2)cc1	-20%
O=C1NC(=O)C2(Cc3ccccc3N3CCCC32)C(=O)N1c1cccc(Cl)c1 (stereo not given)	-7%
COC(=O)c1ccc(-n2c(C)nc3ccccc3c2=O)cc1	-1%
CCNC(C)Cc1cccc(C(F)(F)F)c1 (stereo not given)	-2%
CC(NCc1ccc(Cl)cc1)C(O)c1ccccc1 (stereo not given)	-14%
CCCC(C)n1[nH]c(=O)c2c1NC(=O)CSC2c1ccc(OC)cc1 (stereo not given)	-2%
CCn1cc(C(=O)N2CCC3(CC2)OCCO3)c(=O)c2cc(S(=O)(=O)N3CCCC3)ccc21	-14%
CC[C@@H]1[C@@H]2C[C@H]3[C@H]4N(C)c5ccccc5[C@@]45C[C@@H]([C@@H]2[C@@H]5O)N3[C@H]1O	3%
O=C(O)c1ccc(Cl)nc1	-13%
CN1CCC(N2CC3CC(C2)c2cccc(=O)n2C3)CC1 (stereo not given)	-18%
CCn1c(O)c(C=Nc2ccc(S(N)(=O)=O)cc2)c(=O)n(CC)c1=S	-17%
Cc1c(O)c(O)cc2c1CC=C1[C@]3(C)CC[C@]4(C)CC[C@@](C)(C(=O)O)CC4[C@]3(C)CC[C@]12C (stereo not given in full)	18µM*
C[C@@]12CC[C@H]3[C@H](CCC4=CC(=O)CC[C@H]43)[C@H]1CC[C@H]2OC1(O)C(=O)c2ccccc2C1=O	-1%
O=C1NC(=O)N(c2ccc(F)cc2)C(=O)/C1=C/c1ccc2c(c1)CCCN2Cc1ccccc1	?
CC(C)Oc1ccc(Cc2c(O)[nH]c(=O)[nH]c2=O)cc1	-5%
O=C(c1cc(=O)[nH]c2ccc(Br)cc12)N1CCC2(CC1)OCCO2	-19%
CN1CCN(c2cccc3c2C(=O)c2ccccc2C3=O)CC1	-6%
O=c1cccc2n1CC1CC2CN(c2ncnc3c2cnn3-c2ccc(Cl)cc2)C1 (stereo not given)	-7%
C[C@H]1[C@@H](O)[C@@H](C)/C=C\C=CCC\C=C/C=C\C=C/C=C[C@@H](O[C@H]2O[C@@H](C)[C@@H](O)[C@@H](N)[C@@H]2O)C[C@@H]2O[C@@](O)(C[C@@H](O)[C@H]2C(=O)O)C[C@@H](O)[C@@H](O)CC[C@@H](O)C[C@@H](O)C[C@@H](O)CC(=O)O[C@H]1C	-16%
O=C1CC(c2ccccc2)CC(O)=C1C=NCCN1CCN(C(=O)Cc2ccccc2)CC1 (stereo not given)	-7%
COc1ccccc1CN1CC[C@@]2(CCCN(C(=O)Oc3ccccc3)C2)C1	-7%
COC(=O)c1ccc(COc2cc(C)cc3oc(=O)c4c(c23)CCCC4)o1	?

Molecules listed so far that have nitrogen in an aromatic ring:
SMILES	HPGD block
Cc1ccccc1-n1c(-c2ccc([N+](=O)[O-])cc2)nc2ccccc2c1=O	-2%
COC(=O)c1ccc(-n2c(C)nc3ccccc3c2=O)cc1	-1%
CCCC(C)n1[nH]c(=O)c2c1NC(=O)CSC2c1ccc(OC)cc1 (stereo not given)	-2%
CCn1cc(C(=O)N2CCC3(CC2)OCCO3)c(=O)c2cc(S(=O)(=O)N3CCCC3)ccc21	-14%
O=C(O)c1ccc(Cl)nc1	-13%
CN1CCC(N2CC3CC(C2)c2cccc(=O)n2C3)CC1 (stereo not given)	-18%
CCn1c(O)c(C=Nc2ccc(S(N)(=O)=O)cc2)c(=O)n(CC)c1=S	-17%
CC(C)Oc1ccc(Cc2c(O)[nH]c(=O)[nH]c2=O)cc1	-5%
O=C(c1cc(=O)[nH]c2ccc(Br)cc12)N1CCC2(CC1)OCCO2	-19%
O=c1cccc2n1CC1CC2CN(c2ncnc3c2cnn3-c2ccc(Cl)cc2)C1 (stereo not given)	-7%

The listing continues.
SMILES	HPGD block
CN1C(=O)/C(=C\N2CCc3ccccc32)C(=O)NC1=S	-13%
O=[N+]([O-])C(Br)Br	?
Cc1cc(NCCN)nc2ccccc12	-10%
Cc1ccccc1C(=O)NC(Oc1ccccc1)C(Cl)(Cl)Cl (stereo not given)	-7%
NCCc1c[nH]c2ccccc12	-7%&-7%&-10%
CCN1C[C@@]2(COC)CC[C@H](OC)[C@]34[C@@H]1[C@]1(OCO[C@@]15C[C@@H](OC)C1C[C@H]3[C@H]5[C@@H]1OC)[C@H](O)[C@@H]24	0%
CCc1c(C)nc(N)nc1N1N=C1SCC(N)=O	-8%
c1ccc(C(c2ccccc2)N2CCN(c3ccc4ccccc4n3)CC2)cc1	?
Cc1cc(Cl)ccc1OCCCC(=O)NCc1cccs1	32µM*
O=C(NCP(=O)(O)O)c1cccnc1	-4%
Clc1cncc(N2CCNCC2)n1	?
NNC(=O)c1ccc(O)cc1	-14%
CC(=O)Nc1ccccc1OP1(=O)COc2ccccc2OC1	-5%
CS(=O)(=O)N1CCCC(C(=O)N2CCC3(CC2)OCCO3)C1 (stereo not given)	0%
O=C(C1CC(=O)N(C2CCCCCCC2)C1)N1CCC2(CC1)OCCO2 (stereo not given)	-6%
Cc1ncc(CN2CC=C(c3ccccc3)CC2)c(N)n1	-11%
CC(=O)CC1CCCCN1 (stereo not given)	-9%
C(=NC1CCCCC1)=NC1CCCCC1	-1%
OC1/C(=C/c2ccc(F)cc2)N2CCC1CC2 (stereo not given)	6%
Nc1ccccc1Cl	-4%
Cc1c(C=O)c2ccccc2n1Cc1cccc(F)c1	-11%
CN(CC(=O)Nc1ccccc1-c1ccccc1)C1CCCCC1	-11%
O=c1[nH]c(=O)n(Cc2ccco2)c(O)c1C=NCCN1CCOCC1	-12%
C[C@@H]1[C@@H](C)N1C[C@H](O)Cn1ccnc1[N+](=O)[O-] (stereo not given in full)	-13%
CCCN(CC#CCOc1ccc(OC)cc1)CCC	-10%
SMILES	HPGD block
Cc1c(C(c2ccc(O)cc2)c2c(O)c3ccccc3oc2=O)c(=O)n(-c2ccccc2)n1C (stereo not given)	-11%
CCOC(=O)N(CC)c1ccc(C(O)(C(=O)OCC)C(F)(F)F)cc1 (stereo not given)	-1%
COc1ccc2c(c1)c(CCN1CCOCC1)c(C)n2C(=O)c1cccc(Cl)c1Cl	28µM*
c1ccc(CCCCN2CCC(c3ccccc3)CC2)cc1	-8%
Oc1ccc(Br)cc1CN1CCN(c2ccccc2)CC1	-22%
c1nc[nH]n1	1%
COc1cc(NC(=O)CN2C3CCC2CC(O)(c2cccnc2)C3)cc(OC)c1 (stereo not given)	-6%
CN(C)c1ccc(/C=C2/C(=O)NC(=O)N(CCc3ccc(F)cc3)C2=O)cc1	10µM*
CC[C@H]1CN2CCc3cc(OC)c(OC)cc3[C@H]2C[C@@H]1C[C@@H]1NCCc2cc(OC)c(OC)cc21	-8%
COC(=O)C(O)(c1ccc(N(C)C(=O)OC(C)C)cc1)C(F)(F)F (stereo not given)	-3%
CCN(CC)CCO[C@H]1CC[C@@]2(C)C(=CC[C@@H]3[C@H]2CC[C@]2(C)C(=O)CC[C@H]32)C1	-7%
CC(=O)Nc1ccc(OC(=O)N(C)C)cc1	-4%
COc1cccc(-n2c(-c3ccoc3)nc3ccccc3c2=O)c1	-4%
CCCC(C)C1(CC)C(=O)NC(=S)NC1=O (stereo not given)	-4%
C[C@]12[C@H](O)CC3C(CC[C@@H]4C[C@@H](O)CC[C@]34C)[C@@]1(O)CC[C@@H]2C1=CC(=O)OC1 (stereo not given in full)	0%
CCC(C)C(=O)OC1C(O)C2C(CN3CC(C)CCC3[C@]2(C)O)C2C[C@]34O[C@@]5(O)C(OC(=O)C(C)(O)C(C)O)CCC3(C)C5C(OC(C)=O)C(OC(C)=O)C4[C@@]21O (stereo not given in full)	-8%
CC1CN=C(Nc2cccc3ccccc23)S1 (stereo not given)	-5%
C[C@@]12CC(c3ccoc3)OC(=O)C1CC[C@@]1(C)C2C2C=C[C@@]1(O)C(=O)O2 (stereo not given in full)	-1%
O=C(Nc1ccc(Cl)cc1C(=O)c1ccccc1Cl)c1ccco1	-13%
C[C@]12CCC3C(CC[C@H]4C[C@H](O)CC[C@]34C)C1CC[C@@H]2C(=O)CO (stereo not given in full)	-5%
CNC(=O)Oc1cccc(-c2cn3cc(OC(=O)NC)ccc3n2)c1	?
N#CCc1ccccc1	-8%
CCCCCCOc1ccc(CN2CCN(C)CC2)cc1	?
CC(C)(Cl)[N+](=O)[O-]	-1%
O=C(O)C1CN(CP(=O)(O)O)CCN1 (stereo not given)	-6%
SMILES	HPGD block
CCCN1CCC2(CC1)NC(CO)(CO)CO2	-8%
O=C1CCCC2C3CC(CN12)C1CCCCN1C3 (stereo not given)	-6%
CCCCCn1c(SCCCC)nc2c1c(=O)[nH]c(=O)n2C	14µM*
CCN1CCN(Cc2cc(Br)cc(OC)c2O)CC1	-1%
O[C@H]1C2CCC1C(N1CCCCC1)CC2 (stereo not given in full)	-5%
CN1CCN(Cc2ccccc2C(F)(F)F)CC1	-1%
NC[C@@H](O)CSP(=O)(O)O	-7%
COc1ccc(C(CN(C)C)C2(O)CCCCC2)cc1 (stereo not given)	-2%
Cn1c(O)c(/C=N/c2ncccn2)c(=O)n(C)c1=O	-17%
COc1ccc(C2SCC(=O)Nc3c2c(C)nn3C2CCOC(C)(C)C2)cc1OC (stereo not given)	-25%
COc1cc2c(c(OC)c1OC)-c1ccc(O)c(=O)cc1C(NC(C)=O)CC2 (stereo not given)	-6%
CC(=O)N1CC2CC(C1)c1cccc(=O)n1C2 (stereo not given)	0%
CCCCn1c(O)c(C=NC2CC3CCC2(C)C3(C)C)c(=O)[nH]c1=O (stereo not given)	-12%
CCN(N=O)C(N)=O	-2%
CC(N)c1cccc(Cl)c1Cl (stereo not given)	-5%
ClC1=CCC2CN(CCN3CCCCC3)CC2C1 (stereo not given)	1%
COCCNC(=O)c1c(N)n(Cc2ccco2)c2nc3ccccc3nc12	?
CC(C)[C@]1(O)[C@@H](OC(=O)c2ccc[nH]2)[C@@]2(O)[C@@]3(C)C[C@]4(O)O[C@@]5([C@H](O)[C@@H](C)CC[C@]35O)[C@@]2(O)C41C	-4%
COc1ccccc1N1C(=O)NC(=O)/C(=C/c2ccc3c(c2)Cc2ccccc2-3)C1=O	?
C#CCOC(=O)C1=CCCN(C)C1	-10%&0%
C[C@]12C=CC(=O)C=C1CC[C@@H]1C2CC[C@]2(C)OC(=O)CCC12 (stereo not given in full)	-5%
Cc1noc(C)c1C(=O)N1CCC2(CCCN(CC(C)C)C2)CC1	-6%
COC(=O)C(O)(c1ccc(NC(=S)NC(=O)c2ccc(Cl)cc2Cl)cc1)C(F)(F)F (stereo not given)	-8%
CCCCn1c(O)c(C(C)=NC(C)c2ccccc2)c(=O)[nH]c1=O (stereo not given)	?
Cc1cc(C)nc(NC2=NCCS2)n1	-2%

Continued; it opens with the two that closed the last part.
SMILES	HPGD block
CCCCn1c(O)c(C(C)=NC(C)c2ccccc2)c(=O)[nH]c1=O (stereo not given)	?
Cc1cc(C)nc(NC2=NCCS2)n1	-2%
NC[C@H](O)c1ccc(O)cc1	1%
COC1=CC(=O)OC(CCc2ccc3c(c2)OCO3)C1 (stereo not given)	-17%
C=CCC1(CN2CCCC2=O)C(=O)NC(=O)NC1=O	2%
NC(=O)CN1C2CCC1CC(NC(=O)C1CC1)C2 (stereo not given)	-11%
CN1C[C@H](CNC(=O)OCc2ccccc2)C[C@H]2c3cccc4c3c(cn4C)C[C@@H]21	-5%&-1%
[O-]/[N+](=N\O)c1ccccc1	13µM*
O=P(O)(O)c1ccccc1 (tested in a mixture with another compound)	-7%
COC(=O)CC1NC2CCCCC2NC1=O (stereo not given)	-2%
c1ccc2c3c([nH]c2c1)CNCC3	-2%
O=C(Cc1ccccc1)N1CCN(Cc2cccnc2)CC1	-9%
Cc1ccc(-n2nc(C)c(C3C(C#N)=C(N)Oc4c3c(=O)oc3ccccc43)c2Cl)cc1 (stereo not given)	-16%
Cc1cc(-c2ccc(N)c(C)c2)ccc1N	-10%
OC[C@@H]1CCCN2CCCC[C@@H]12	-4%
COc1ccc(C[C@@H]2NC[C@H](O)[C@@H]2OC(C)=O)cc1	-10%
C[C@@H]1O[C@H](O[C@@H]2C[C@@H](O)[C@]3(CO)[C@H]4[C@H](O)C[C@]5(C)[C@@H](C6=CC(=O)OC6)CC[C@@]5(O)[C@@H]4CC[C@]3(O)C2)[C@@H](O)[C@H](O)[C@H]1O	-3%
CN(C)c1ccc(/C=C2\CCCN=C2c2cccnc2)cc1	-19%
C=CCN1C(=O)/C(=C/c2cc(C)n(-c3ccccn3)c2C)C(=O)NC1=S	13µM*
